# Sa RN4220 lethal = growth inhibition of S. aureus RN4220, primary screen, OD600; 0.33% of 330,000 active; AID 1259311, 2017; 16 h; inhibition, % (no concentration beside the values);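 active means z-score of -3 or lower and OD600 up to 0.18 on both plates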;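 further: plate controls were untreated cells for no effect and reference antibiotic for full effect; stock transfer was 100 nL into about 80 µL; one replicate is shown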
# Mtb hypoxia rep = PubChem AID 1159583; 0.1% of 300,000 active; fluorescence inhibition, % (no concentration beside the values); M. tuberculosis hypoxia-regulated fluorescent reporter, fluorescence;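 active means 35 to 45% if threefold the growth effect, above 45% if 1.5-fold the growth effect; inactive means the rest, general growth blockers included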;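 further: wells of about 50 µL received 100 nL stock; 0% = vehicle wells and 100% = reference inhibitor wells; whole bacteria with a GFP reporter of the hypoxia response; strong numbers were not always called active; many hits fall short of the cut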
# Bead autofluor = compound fluorescence in toxin protease inhibitor counterscreen. compound autofluorescence counterscreen, microsphere flow cytometry; stronger effect = higher value. fluorescence intensity (test concentration not listed). 3.1% of 360,000 active. AID 624483;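 active means at least 3 SD above the mean of all compounds, about 16000 in these data; inconclusive means too few beads counted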;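 further: 100 nL of 1 mM stock went into each well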
# BJeLR viability = MLPCN primary cell-based screen for lethality selective to Ras in HRASV12 cells; BJeLR (HRASV12) viability, CellTiter-Glo ATP luminescence, 48 h; reference of the scale not given here; inhibition, % (concentration not given with the values); AID 1554, 2009; 0.17% of 300,000 active;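 active means replicate mean above 50%; inconclusive means above 50% but judged a plate artefact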;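 further: 50 nL library stock added to about 25 µL; numbers are from one replicate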
# ugtP null kill = growth inhibition of ugtP-null S. aureus, primary screen, RN4220 ugtP deletion, OD600. 0.54% of 330,000 active. 16 h; some inactives read as strong as hits. AID 1259309, 2017. growth inhibition, % (concentration not given with the values);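 active means z-score under -3 and OD600 up to 0.15 on both plates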;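 further: plate controls were untreated wells for no effect and antibiotic for full effect; wells of about 80 µL received 100 nL stock; the first replicate is given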
# PrP UTR inh = inhibition of PrP 5' UTR reporter expression | 0.35% of 340,000 active | cell-based PrP 5' UTR mRNA reporter, plate reader | inhibition, % (no concentration beside the values);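 active means every replicate at 50% or more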;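 further: 0 = median of the neutral control wells; tested in H4 reporter cells; numbers are from one replicate; inactives centre near -14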
# Mtb hypoxia rep growth = also measured in Mtb hypoxia rep; calls as there; growth inhibition, %; measured here: M. tuberculosis growth (absorbance);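 0% = vehicle and 100% = reference antibiotic; read after six days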
# * = called active by the depositor; ? = inconclusive; nt = no result given.
Compound	Sa RN4220 lethal	Mtb hypoxia rep	Mtb hypoxia rep growth	Bead autofluor	BJeLR viability	ugtP null kill	PrP UTR inh
COc1ccc(NC(=O)N(C)C[C@H]2Oc3ccc(NC(=O)Cn4cnnn4)cc3C(=O)N([C@H](C)CO)C[C@@H]2C)cc1	-18	8	16	4107	nt	-8	-18
CCOc1ccc(NC(=O)[C@@H]2CCCN2C(=O)c2cccs2)cc1S(=O)(=O)N1CCCCC1	-2.6	13	9	8113	nt	2	-17
O=C(OCC(=O)N1CCN(C(=O)c2ccco2)CC1)c1cc(-c2ccco2)nc2ccccc12	2.2	6	19	8275	4	0	-5
COc1cc(NS(=O)(=O)c2ccc(NC(=O)CN3C(=O)c4ccccc4C3=O)cc2)nc(OC)n1	6.3	11	1	2384	1	8	-12
Cc1ccc2c(nc3s/c(=C\c4ccc(-c5ccccc5C(=O)O)o4)c(=O)n32)c1C	nt	nt	nt	4418	10	nt	-14
CCN(c1cccc(C)c1)S(=O)(=O)c1ccc2c(c1)CCCN2C(C)=O	8.5	-2	-5	6026	7	-1	1
O=[N+]([O-])c1ccc(N2CCOCC2)c(S(=O)(=O)N2CCOCC2)c1	4.0	-3	-6	2373	-3	0	-1
CN1C(=O)C(C)(C)c2cc(S(=O)(=O)NCC3CCC(C(=O)NCc4ccccc4)CC3)ccc21 (configuration not stated)	2.3	7	4	6080	8	9	-3
COc1cccc(C=Nc2nc3ccccc3n2C)c1O	7.1	13	14	nt	nt	9	nt
O=C(NCC1CCCO1)C1CCN(S(=O)(=O)c2cccc3cccnc23)CC1 (configuration not stated)	2.5	nt	nt	5076	nt	3	-14
COc1ccc(/C=C(/C#N)C(=O)Nc2ccc(C)cc2C)cc1C(=O)O	nt	nt	nt	3298	4	nt	-15
O=C(O)c1n[nH]c2ccccc12	-0.5	nt	nt	4504	-1	-3	-5
Cc1ccc(Oc2cc([N+](=O)[O-])cc3c2C(=O)Nc2ccccc2O3)cc1	97*	9	0	2589	0	91*	-11
CCc1c(C)nc2cc(-c3ccc(OC)c(OC)c3)nn2c1NCC1CC1	nt	nt	nt	2472	8	nt	-6
COC(=O)c1ccc2c(=O)n(CCCN3CCOCC3)c(=S)[nH]c2c1	1.5	15	7	4040	-1	10	-8
Cc1ccc(S(=O)(=O)N2CCN(C(=O)/C=C/c3ccco3)CC2)cc1	2.9	3	-1	2666	3	2	-19
Cn1nccc1C(=O)Oc1cccc(C=NNC(=O)c2ccccc2O)c1	8.8	1	0	nt	nt	12	nt
COc1cccc(C2C=C(c3ccc(Br)s3)Nc3ncnn32)c1OC (configuration not stated)	nt	nt	nt	2982	-7	nt	-10
O=C1CC(N2CCC(c3nc4ccccc4s3)CC2)C(=O)N1 (configuration not stated)	6.0	nt	nt	4664	7	2	-17
COc1ccc(/C=N/n2c(-c3cc(C)[nH]n3)n[nH]c2=S)cc1	nt	nt	nt	4261	-5	nt	-9
Fc1ccccc1CNCCc1ccc2c(c1)OCO2	1.8	2	10	3909	-1	3	-17
CCCc1c(C(=O)N/N=C/C(C)=C/c2ccccc2)nnn1-c1nonc1N	nt	nt	nt	5694	-5	nt	-35
Cc1ccc(C(=O)NC(=S)NCC2CCCO2)cc1 (configuration not stated)	-0.2	nt	nt	2682	3	6	-89
CC(=O)Nc1ccc(-c2csc(Nc3ccc(Cl)cn3)n2)cc1	5.1	2	-1	4305	8	28	-47
Cc1nc(SCc2nc3cc(Cl)c(F)cc3[nH]2)c2oc3ccccc3c2n1	0.3	-5	8	4048	nt	10	-10
CCOC(=O)C(Sc1nn(C)c(=S)s1)C(C)=O (configuration not stated)	5.9	1	10	4990	0	1	-27
Oc1ccc(Br)cc1C=NN1CCCCC1	8.9	7	-5	nt	nt	11	nt
CCCn1nnc(NC(=O)c2cccc(OCC)c2)n1	1.4	4	7	5922	1	-4	-33
Cc1cccnc1NC(=O)c1ccc(Cl)c(S(=O)(=O)N2CCCC2)c1	-1.2	15	7	4267	-8	3	-13
CCOC(=O)Cc1c(C)nc2cc(-c3ccc(C)cc3)[nH]n2c1=O	3.7	15	4	9047	0	-8	-29
COc1ccc(NC(=O)c2ccc(-n3c(C)ccc3C)cc2)c(OC)c1	5.1	2	8	5724	3	8	-26
Cc1nc(N2CCC(C(N)=O)CC2)c2c(-c3cccs3)csc2n1	1.6	11	13	4500	nt	2	8
Cc1cc(C)nc(SCC(=O)NN)n1	-0.4	-5	6	4661	-1	1	-7
O=C(Nc1ccc(S(=O)(=O)Nc2ncccn2)cc1)c1ccccc1Cl	2.7	-1	2	3473	-1	2	-17
O=C(O)CCc1nn2c3ccccc3nc2n(CCN2CCCCC2)c1=O	-8.4	1	-7	2471	10	-1	-3
COc1ccc(CN2CCC(=O)NC2=O)cc1	1.8	4	22	25338*	-1	1	-10
O=c1oc2c3c4c(cc2s1)CCCN4CCC3	8.2	3	3	5685	4	7	-27
C[C@@H]1COC(=O)[C@H](Cc2ccc(F)cc2)CC/C=C/C[C@@H](CC(=O)N[C@@H](CO)Cc2ccccc2)C(=O)N1	-7.7	3	-2	2913	nt	-1	-14
O=C(NC1CCCC1)c1cc(Cl)ccc1[N+](=O)[O-]	5.1	1	-2	2460	3	4	-13
COc1ccc(Br)cc1CNc1ccc(O)cc1	-6.4	nt	nt	2810	nt	0	-7

# Five compounds from above, arranged by molecular weight, high to low.
Compound	Sa RN4220 lethal	Mtb hypoxia rep	Mtb hypoxia rep growth	Bead autofluor	BJeLR viability	ugtP null kill	PrP UTR inh
COc1cc(NS(=O)(=O)c2ccc(NC(=O)CN3C(=O)c4ccccc4C3=O)cc2)nc(OC)n1	6.3	11	1	2384	1	8	-12
Cc1nc(N2CCC(C(N)=O)CC2)c2c(-c3cccs3)csc2n1	1.6	11	13	4500	nt	2	8
CCOC(=O)C(Sc1nn(C)c(=S)s1)C(C)=O (configuration not stated)	5.9	1	10	4990	0	1	-27
Oc1ccc(Br)cc1C=NN1CCCCC1	8.9	7	-5	nt	nt	11	nt
Cc1cc(C)nc(SCC(=O)NN)n1	-0.4	-5	6	4661	-1	1	-7

# Next records.
Compound	Sa RN4220 lethal	Mtb hypoxia rep	Mtb hypoxia rep growth	Bead autofluor	BJeLR viability	ugtP null kill	PrP UTR inh
O=C(CCc1c[nH]c2ccccc12)Nc1ncccc1O	0.7	5	-1	6713	-10	-3	-5
CCCCNC(=O)C1CCN(S(=O)(=O)c2c(C)noc2/C=C\c2ccc(OC)cc2)CC1	-15	1	1	6291	9	-4	-7
O=C(O)c1nc(N2CCCC2)ncc1Cl	6.0	5	2	19947*	7	4	-60
CCOC(=O)N1CCN(C(=O)Cn2ccc3ccccc3c2=O)CC1	-3.2	nt	nt	3734	-3	2	-33
CSc1cccc(NC(=O)C2CCN(S(=O)(=O)c3ccc(F)cc3)CC2)c1	-1.3	12	3	8036	-12	-8	-37
Cn1c(=O)[nH]c(=O)c2c1nc(CN1CCN(c3cccc(Cl)c3)CC1)n2CCc1ccccc1	1.2	-2	2	16970*	-19	14	-1
CC1=NN(C(=O)CSCc2ccccc2)C(O)(c2ccc(Cl)cc2)C1 (configuration not stated)	2.8	11	6	4201	1	1	4
O=C(CCCn1c(=O)c2ccccc2n(Cc2ccccc2)c1=O)NCc1ccco1	-1.3	nt	nt	3591	10	1	-1
Cn1c(NC(=O)c2cc(Br)ccc2Cl)cc(=O)n(C)c1=O	9.3	0	0	5751	12	11	-15
Cc1cc(C)n2nc(C(=O)Nc3nnc(C4CC4)s3)nc2n1	6.2	3	5	2273	-12	0	-14
Cc1ccc(NS(=O)(=O)c2cccc(C(=O)N3CCN(C(=O)c4ccco4)CC3)c2)cc1	-0.5	-2	-1	4393	nt	3	-10
CC(C)(C)Nc1nc(Oc2ccc(=O)n(-c3ccccc3)n2)nc(N2CCOCC2)n1	3.3	-19	-14	2959	12	-1	8
NC(=O)C1CCN(CC(=O)NC2CCCc3ccccc32)CC1 (configuration not stated)	0.6	7	-4	4322	-1	7	-32
CN(CC(=O)Nc1ccc(F)cc1)C(=O)COC(=O)c1ccc(-c2ccccc2)cc1	2.2	-4	-6	4985	3	-2	-2
CCOc1ccccc1NC(=S)N(CCOC)C1CCN(C(C)=O)CC1	4.0	-11	8	6189	6	-5	-14
CCP(=O)(c1cccc([N+](=O)[O-])c1)c1cccc([N+](=O)[O-])c1	2.3	10	17	4308	-20	2	-16
C/C(Nc1ccc(Cl)cc1)=C(/C#N)C(N)=O	4.9	16	-1	10723	3	7	-18
CC(C)c1ccc(NC(=S)NC2CCN(Cc3ccccc3)CC2)cc1	0.1	7	1	9780	8	-4	-22
COc1ccc(N=C2O/C(=C/c3sc(=S)n(CC4CCCO4)c3O)N=C2C#N)cc1 (configuration not stated)	-5.9	-2	1	nt	-10	-7	nt
CCO[C@H]1OC(C(=O)NCc2ccccc2)=C[C@@H](C2CCCCC2)[C@@H]1CCCO	nt	nt	nt	3802	-10	nt	-46
S=c1[nH]nc(CCc2ccccc2)n1Cc1ccccc1	7.3	nt	nt	4284	-1	0	-7
COc1ccc(COC(=O)c2cccc(S(=O)(=O)N3CCN(C(C)=O)CC3)c2)cc1	3.0	4	-8	4275	3	10	-10
CCC(=O)OCC(=O)Nc1cc([N+](=O)[O-])ccc1OC	2.9	-6	4	4307	-2	-4	-33
CCOc1ccc(Oc2ccccc2NC(=O)C2=COCCO2)cc1	-3.4	0	6	?	2	-1	-16
O=C(NC(=S)Nc1ccc(S(=O)(=O)N2CCCCC2)cc1)c1ccccc1	6.9	nt	nt	3543	-2	86*	-36
COc1ccc(S(=O)(=O)Nc2ccc(N3CCOCC3)cc2)cc1	-1.4	-1	-7	2929	1	5	-19
Cc1cccc2c(C(=O)Nc3ccc(Br)cc3)cc(-c3ccccn3)nc12	0.5	10	-3	3741	6	6	2
O=C(Cn1nnc2ccccc21)Nc1ccc(Cl)cn1	0.9	-4	-24	2851	9	5	-20
CCOC(=O)c1cccc(-c2ccc(C=O)o2)c1	8.3	11	1	2165	9	10	-18
CCN(CC)S(=O)(=O)c1ccc(N2CCN(S(=O)(=O)c3ccccc3)CC2)nc1	-4.2	-4	-7	3681	-3	2	-4
O=C(Cn1cc2c(n1)CCCC2)Nc1ccccc1Br	6.1	nt	nt	4402	-7	9	-18
Cc1nonc1OC(C)CNCCNc1ccc([N+](=O)[O-])cc1 (configuration not stated)	1.6	4	2	nt	-2	12	nt
Cn1cnc([N+](=O)[O-])c1NCc1ccccc1	-0.6	-8	5	3764	11	2	nt
CCOc1ccccc1NC(=O)CSc1n[nH]c(=O)n1-c1ccccc1	nt	nt	nt	3878	-9	nt	-22
Cc1cc2c(NC(=O)Nc3ccccc3)cccc2nn1	3.8	12	13	3721	-5	2	-36
CCOCCCNC(=O)Cc1c(C(=O)O)[nH]c2ccc(Cl)cc12	-0.8	-2	6	5687	6	4	-9
CCn1cc(/C=C/C(=O)Nc2c(C)nn(Cc3ccccc3)c2C)cn1	2.9	8	3	2131	-6	2	-18
O=C(Cn1nc(-c2ccc(Cl)cc2)ccc1=O)N1CCC2(CC1)OCCO2	1.6	9	-5	4746	11	4	-6

# Part of the list above, as labelled records:
CCOc1ccccc1NC(=O)CSc1n[nH]c(=O)n1-c1ccccc1
  Sa RN4220 lethal = nt
  Mtb hypoxia rep = nt
  Mtb hypoxia rep growth = nt
  Bead autofluor = 3878
  BJeLR viability = -9
  ugtP null kill = nt
  PrP UTR inh = -22

Cc1cc2c(NC(=O)Nc3ccccc3)cccc2nn1
  Sa RN4220 lethal = 3.8
  Mtb hypoxia rep = 12
  Mtb hypoxia rep growth = 13
  Bead autofluor = 3721
  BJeLR viability = -5
  ugtP null kill = 2
  PrP UTR inh = -36

CCOCCCNC(=O)Cc1c(C(=O)O)[nH]c2ccc(Cl)cc12
  Sa RN4220 lethal = -0.8
  Mtb hypoxia rep = -2
  Mtb hypoxia rep growth = 6
  Bead autofluor = 5687
  BJeLR viability = 6
  ugtP null kill = 4
  PrP UTR inh = -9

# Source: PubChem

# Rows are unselected; about 4% have a hit in one of these screens.
